# From PubChem
# PABP polyA inh: PABP poly(A) RNA binding inhibitors, primary screen, biochemical, fluorescence polarization, uHTS; inhibition, % at 35 µM; 290,000 compounds, 1% hits;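 active = 50% or more with normal probe brightness, or confirmed in later tests; inconclusive = above 50% with abnormal brightness, or retests that disagree; inactive = below 50% or failed in later tests; about a fifth of its hits are not listed in these tables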;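 also: calls also rest on retests at 20 µM and on dose response follow-up; controls were probe without protein and protein plus probe with vehicle; some compounds called inactive have numbers as strong as hits; many hits fall short of the cut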
# HIV Env fusion: inhibitors of HIV-1 Env-driven cell-cell fusion, primary screen, HeLa-JRFL effector, CEM21 target cells, luciferase | inhibition, % at 12.3 µM | 360,000 compounds, 1.1% hits;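 active = mean replicate inhibition score of at least 50 and every replicate individually at or above 50; inconclusive = only one of the two criteria met; inactive = mean below 50 and not all replicates reaching 50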;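 also: 0% = plate neutral controls and 100% = maraviroc near 300 nM; one replicate is shown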
# eIF4H inh: human eIF4H binding inhibitors, primary screen, translation initiation inhibitor project, biochemical, uHTS, fluorescence polarization; Eukaryotic translation initiation factor 4H (Homo sapiens), Q15056; eIF4H fluorescence polarization binding assay; inhibition, % at 35 µM; 290,000 compounds, 0.94% hits;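 active = 50% or more with normal probe brightness, or confirmed in later tests; inconclusive = above 50% with abnormal brightness, or retests that disagree; inactive = below 50% or failed in later tests; about a fifth of its hits are not listed in these tables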;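 also: calls also rest on retests at 20 µM and on dose response follow-up; 0% = protein and probe with vehicle and 100% = probe without protein; strong numbers were not always called active; many hits fall short of the cut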
# MT1-MMP act inh: blockers of MT1-MMP proenzyme processing, primary screen, HT1080 RFP-PRO-GFP cells, GFP/RFP fluorescence | Matrix metalloproteinase-14 (Homo sapiens), P50281 | GFP/RFP ratio fluorescence, overnight; percent of plate control window, DMSO zero | GFP/RFP ratio change, % at 20 µM | 360,000 compounds, 0.061% hits | AID 651647, 2012;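 active = GFP/RFP ratio change of at least 30% with cell ATP level not reduced by more than half and red fluorescence within 50% of control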; also: strong numbers were not always called active
#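 Compound: 20 µM single dose, 1% DMSO / System: HT1080 RFP-PRO-GFP cells / Controls: DMSO and RFP-L50D-GFP cell wells / Read-out basis: GFP/RFP fluorescence ratio / Schedule: overnight compound exposure at 37 °C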
# Rce1 inh: yeast Rce1p protease inhibitors, primary screen, biochemical, fluorescence, cell-free homogeneous; CAAX prenyl protease 2 (Saccharomyces cerevisiae (strain ATCC 204508 / S288c)), Q03530; yeast membranes, quenched prenylated peptide cleavage fluorescence; calls only; 290,000 compounds, 0.27% hits; AID 2563, 2010;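 active = fall in fluorescence gain of 50% or more versus controls, with final raw signal at or below 3038400; inconclusive = same 50% fall but final raw signal above 3038400; inactive = fall in fluorescence gain under 50%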;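 also: plate controls were neutral control wells for no effect and wells lacking membranes for full effect; tested at 10 µM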
# Target sequence (Q03530 whole entry, looked up): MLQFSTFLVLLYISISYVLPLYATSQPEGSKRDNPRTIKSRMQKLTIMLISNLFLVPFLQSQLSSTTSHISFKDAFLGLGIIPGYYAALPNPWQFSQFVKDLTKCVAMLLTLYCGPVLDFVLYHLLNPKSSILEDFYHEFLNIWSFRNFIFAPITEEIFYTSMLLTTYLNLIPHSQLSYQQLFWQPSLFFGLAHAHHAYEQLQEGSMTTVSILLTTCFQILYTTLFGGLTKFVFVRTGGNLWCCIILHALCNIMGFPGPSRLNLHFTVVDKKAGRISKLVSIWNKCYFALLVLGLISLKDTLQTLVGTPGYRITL
# UUG fidelity: modulators of yeast start codon fidelity, primary screen, whole organism, S. cerevisiae, single point, plate reader | S. cerevisiae UUG-firefly luciferase reporter, luminescence/redox ratio | activity score, % at 18.7 µM | 350,000 compounds, 0.13% hits;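 active = replicate mean at a twofold rise or more, about +100% in these data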;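 also: firefly luciferase made from a UUG start codon reports start codon fidelity; reporter light over untreated wells divided by growth signal over untreated wells; some hits fall short of that in this replicate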
# CSC inhib: cancer stem cell viability inhibitors, primary screen, luminescence. cancer stem cell-like cells viability. inhibition, % at 7.5 µM. 300,000 compounds, 1.1% hits. AID 2717, 2010;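 active = mean at 75% or more and at least half the replicates too; inconclusive = mean and replicates disagree; tested in HMLE shEcad cells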;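 also: 0% = median of negative and 100% = median of positive control wells; the first replicate is given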
# eIF4H inh retest: further read-out of eIF4H inh, marked with its call; inhibition, %; compound at 20 µM; confirmation average;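 mean of two retest wells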
# PABP polyA inh retest: second read-out of PABP polyA inh, no call of its own (marks repeat the call); inhibition, %; compound at 20 µM; confirmation repeats;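 mean of two retest wells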
# MT1-MMP act inh RFP: also measured in MT1-MMP act inh; calls as there; RFP signal change, %; measured here: RFP expression control read;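 0 = vehicle wells; hits needed this value within 50% of zero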
# * = called active by the depositor; i = inactive; ? = inconclusive; nt = no result given. This is a subset (hit frequency here may not be typical).
SMILES,PABP polyA inh,HIV Env fusion,eIF4H inh,MT1-MMP act inh,MT1-MMP act inh RFP,Rce1 inh,UUG fidelity,CSC inhib,others
C/C(N)=C(/C#N)C(=O)COC(=O)C1=NN(c2ccccc2)C(=O)CC1,1.8,-1.5,-1.7,-5.5,0.3,i,6.0,-10.0,
COc1ccc(N2C(=O)/C(=C/N(C)C)NC2=S)cc1,-4.8,-5.1,4.2,4.2,7.2,nt,-12.4,nt,
CCOC(=O)N1CCN(C(=O)Cn2ncc3c2-c2ccccc2OC3)CC1,6.0,-81.8,-2.2,1.2,-1.3,i,10.7,0.3,
Cc1cc(SCn2nnc3ccccc3c2=O)nc2ccccc12,-1.3,5.2,-11.0,0.5,-1.0,i,nt,4.6,
Cc1nn(-c2ccccc2)c(Cl)c1C1C(C#N)=C(N)Oc2c1c(C)nn2-c1ccccc1 (configuration not stated),2.3,nt,0.9,0.9,-6.2,i,-0.1,4.9,
O=C(O)Cc1c(C(=O)O)nnn1-c1cccc(C(F)(F)F)c1,-11.2,3.7,-3.4,0.9,0.4,i,-7.9,nt,
CCc1noc(C)c1C(=O)OC(C)C(=O)Nc1ccccc1OC (configuration not stated),nt,10.7,nt,-0.6,4.2,i,0.6,-7.3,
CCC(=O)Oc1ccc(C(=O)Nc2cccc(NC(=O)c3ccco3)c2)cc1,9.1,15.9,-3.3,-2.8,-0.7,i,-37.6,6.3,
CC(c1ccccc1)c1nnc(NC(=O)c2ccc3c(c2)OCO3)s1 (configuration not stated),9.7,-17.2,-9.1,0.9,-12.3,i,nt,42.2,
O=C(Nc1cccc2nsnc12)c1ccc(-c2ccc(Br)cc2)o1,18.6,8.7,36.5,-13.1,15.2,i,nt,-17.2,
Cc1[nH]c(=S)c(C#N)c2c1CCCC2,14.8,-5.3,-6.5,-4.1,-1.0,i,nt,-4.9,
Cc1ccc(CNCC(O)c2ccccc2)s1 (configuration not stated),-20.1,9.2,-3.9,-2.0,-1.4,i,-7.8,-4.9,

# Looked up by compound from above:
SMILES,PABP polyA inh,HIV Env fusion,eIF4H inh,MT1-MMP act inh,MT1-MMP act inh RFP,Rce1 inh,UUG fidelity,CSC inhib,others
O=C(O)Cc1c(C(=O)O)nnn1-c1cccc(C(F)(F)F)c1,-11.2,3.7,-3.4,0.9,0.4,i,-7.9,nt,
Cc1cc(SCn2nnc3ccccc3c2=O)nc2ccccc12,-1.3,5.2,-11.0,0.5,-1.0,i,nt,4.6,
CC(c1ccccc1)c1nnc(NC(=O)c2ccc3c(c2)OCO3)s1 (configuration not stated),9.7,-17.2,-9.1,0.9,-12.3,i,nt,42.2,
CCc1noc(C)c1C(=O)OC(C)C(=O)Nc1ccccc1OC (configuration not stated),nt,10.7,nt,-0.6,4.2,i,0.6,-7.3,

# New compounds follow.
SMILES,PABP polyA inh,HIV Env fusion,eIF4H inh,MT1-MMP act inh,MT1-MMP act inh RFP,Rce1 inh,UUG fidelity,CSC inhib,others
CC(C)CC(=O)N1CCN(Cc2ccc(C(F)(F)F)cc2)CC1,9.6,17.8,21.3,3.7,-8.1,i,-13.3,-2.5,
CC1=C(C(=O)N(C(C)C)C(C)C)CC(CC(=O)NC(c2ccccc2)c2ccccc2)C(=O)N1CCCN1CCCC1=O (configuration not stated),nt,1.2,nt,0.1,1.0,nt,13.5,nt,
N=c1c2c(ncn1CCN1CCOCC1)Oc1cc(O)ccc1C2c1ccccc1 (configuration not stated),16.8,-61.7,4.4,-7.2,-1.6,i,6.6,-11.5,
CCS(=O)(=O)c1ccc2oc(=O)c(/C=C(\O)c3ccc(Cl)cc3)nc2c1,6.0,-2.8,0.2,1.5,1.9,i,nt,6.4,
CN(CCC#N)C(=O)CC(Cc1ccccc1)C1CCOC(C)(C)C1 (configuration not stated),19.7,1.3,3.4,-0.8,3.6,i,-5.9,-10.7,
Cc1ccc(-c2cc(NC=O)c3ncc(-c4cnn(C)c4)n3c2)cc1,nt,3.3,nt,-26.1,-6.6,nt,-5.4,nt,
O=C1C=C(NNC(=O)c2ccccc2Br)CCC1,3.5,5.2,41.1,3.2,9.3,i,36.3,-10.3,
N#CCCN(C(=O)COC(=O)c1ccc2c(c1)OCCO2)c1ccccc1,nt,17.5,nt,14.5,2.1,nt,nt,-4.1,
CCCCN(CCCC)CCNC(=O)c1cn(C)c2ccc(S(=O)(=O)N(C)C3CCCCC3)cc2c1=O,1.4,3.3,-4.3,-5.1,-0.4,i,6.8,15.0,
O=[N+]([O-])c1ccc(-c2ccc(/C=N/Nc3nc(N4CCCCC4)nc(N4CCCCC4)n3)o2)cc1,13.7,15.6,42.3,-68.6,-1.7,nt,nt,nt,
C/C(NC(=O)c1ccccc1F)=C1\C(=O)C[C@@H]2[C@H]1C2(C)C,7.7,nt,5.2,-8.3,-3.1,i,10.3,28.8,
N#CCCN(Cc1cccs1)C(=O)Nc1ccccc1,6.3,2.1,5.1,-1.1,4.1,i,0.5,-4.4,
CO/N=C/c1ccc(N2CCOCC2)c([N+](=O)[O-])c1,-10.4,-27.5,-4.6,-1.2,1.5,i,-2.8,-5.5,
O=C(Nc1ccccc1)ON=C1c2ccccc2-c2ccccc21,0.4,nt,-12.5,1.1,-5.9,i,nt,1.9,
COc1ccc(C2=NN(C(=O)CN3CCCC3)C(c3ccc(OC)cc3)C2)cc1 (configuration not stated),-0.9,-0.9,2.0,2.8,0.7,i,-3.7,-6.2,
O=C(NC(=S)Nc1ccc(Oc2ccc(Cl)cc2)cc1)c1ccccc1,4.2,nt,-8.3,-1.7,-12.8,i,-15.1,2.2,
CN(Cc1ccco1)S(=O)(=O)c1cc(F)ccc1CN1C(=O)c2cccnc2C1=O,1.7,-2.1,3.1,-2.6,1.2,i,2.1,-26.1,
CN(Cc1ccc(C(F)(F)F)cc1)C(=O)c1ccc(Oc2ccccc2)cc1,2.8,10.8,-12.5,-1.4,-3.8,i,-11.6,2.5,
CCn1c(NCc2c[nH]c3ccccc23)nc2ccccc21,nt,nt,nt,2.9,1.1,i,-11.1,-1.2,
COc1ccc(-c2nc(CCNC(=O)c3ccc(Br)o3)cs2)cc1,-22.9,nt,-19.1,-2.9,-22.9,i,-11.6,0.3,
CC(=O)N=c1c(C#N)cc2c(=O)n3cccc(C)c3nc2n1CCCOC(C)C,23.5,5.6,52.6,-1.1,-3.7,i,4.3,0.8,eIF4H inh retest=-6.2;PABP polyA inh retest=15.3
CC(=O)c1cccc(NC(=O)c2ccc(OC3CSC3)cc2)c1,2.9,-8.6,2.0,-0.6,0.6,i,nt,-10.0,
CN(C)c1ccc(C(c2ccc(N(C)C)cc2)c2ccc([N+](=O)[O-])cc2)cc1,2.8,9.2,4.8,-3.2,-6.3,nt,-13.2,7.7,
O=Cc1c(N2CCC3(CC2)OCCO3)nc2ccccn2c1=O,-0.4,9.9,3.9,1.3,-1.7,i,-15.4,-1.2,
COc1cc(/C=N/NC(=O)c2ccccc2)ccc1O,-1.3,-5.4,-4.1,-0.2,-2.8,i,nt,13.0,
N#C/C(=C\c1cccnc1)c1nc2ccccc2[nH]1,8.6,-34.8,30.7,-9.0,-3.2,i,-17.1,28.1,
CCN(CC)CCn1c(=S)[nH]c2cc(Cl)ccc2c1=O,-5.5,-69.3,-10.3,3.5,3.9,i,-15.0,-6.2,
Cc1ccc(Oc2ccccc2/C=C/C(=O)O)cc1,-2.3,-6.2,-5.0,-0.2,4.5,i,-5.8,-3.6,
Cc1ccc(-c2nc(C3CCN(S(=O)(=O)c4ccc(C(C)(C)C)cc4)CC3)no2)cc1,8.6,11.5,5.4,-2.5,-6.5,i,-8.3,1.2,
CCOC(=O)CSc1nc2cc(C(=O)N3CCC(C(N)=O)CC3)ccc2c(=O)n1C1CCCCC1,-8.7,8.9,-2.8,-3.9,0.4,nt,nt,-0.2,
O=C(O)/C=C\C(=O)Nc1cc(O)ccc1[N+](=O)[O-],2.7,0.2,-2.4,7.9,2.0,i,-10.3,6.1,
O=C(Nc1cccc(S(=O)(=O)N2CCCCCC2)c1)C1CCC1,nt,5.4,nt,8.6,-1.3,i,-12.3,nt,
CCNC(=S)N1CCC(c2nc3ccccc3s2)CC1,-8.8,nt,-12.2,3.0,-3.1,i,-27.9,-12.3,
O=S(c1ccccc1)C(c1ccccc1)c1ccccc1 (configuration not stated),nt,5.3,nt,1.4,-2.5,nt,-16.8,nt,
CC(=O)c1ccc(N(C(=O)CNC(=O)c2ccco2)C(C(=O)NC2CCCC2)c2ccncc2)cc1 (configuration not stated),-3.0,-0.6,-10.9,-2.5,-0.8,i,-11.5,nt,
Cc1ccc(NC(=O)COc2ccc(-n3ccnc3)cc2)cc1Cl,-0.7,nt,1.4,-7.7,-25.0,i,nt,6.9,
COc1ccc(CC2NCCC3(O)CCCCC23)cc1 (configuration not stated),0.4,-2.9,-0.7,2.6,2.5,i,nt,22.2,
O=c1[nH]c(-[n+]2ccccc2)c(/C=N/NC([S-])=Nc2ccccc2)s1,?,5.5,?,-105.6,9.9,i,nt,-1.6,
CCOc1ccc(N=C(C)C2=C(O)c3ccccc3C2=O)cc1,-9.5,-148.6,3.3,0.5,-2.2,i,nt,8.6,
COc1ccccc1N=NC1C(=O)N(C(N)=S)N=C1C (configuration not stated),5.6,-0.5,2.2,7.5,4.7,i,-37.3,-3.7,
O=C(Nc1nc(-c2cc(Cl)sc2Cl)cs1)c1ccc(Br)s1,-5.7,?,11.5,-6.5,-10.2,i,-23.3,39.4,
OC(COCCC12CC3CC(CC(C3)C1)C2)CN1CCCC1 (configuration not stated),8.2,14.7,-3.1,-0.8,-2.3,i,nt,40.4,
COc1ccc(CNC(=O)C2CCCN(S(=O)(=O)c3ccc4c(c3)CCCN4C(C)=O)C2)cc1 (configuration not stated),5.4,15.5,-5.0,-0.1,-18.1,i,1.6,-10.7,
CCOc1ccc(Br)cc1S(=O)(=O)Nc1ccccc1N1CCOCC1,-2.2,nt,5.3,-3.7,-9.1,i,7.1,14.7,
Cc1ccc(C(=O)c2oc3ccccc3c2NC(=O)c2cc(-c3cc(C)ccc3O)n[nH]2)cc1,5.6,-8.2,-8.9,14.3,2.3,i,-19.9,5.9,
O=C(CCc1nc2sc3c(c2c(=O)[nH]1)CCCC3)NCCc1ccccc1,nt,0.4,nt,-4.5,1.4,i,-16.2,-6.9,
Cc1nn(C(C)CC(=O)O)c(C)c1C (configuration not stated),-3.0,-18.5,8.9,0.6,5.4,i,nt,-3.9,
O=C(Nc1cccc(Cl)c1)c1nc[nH]c1C(=O)NCCCNC(=O)c1[nH]cnc1C(=O)Nc1cccc(Cl)c1,nt,23.5,nt,9.4,-5.5,nt,1.8,100.6*,
COC(=O)c1c(NC(=O)C2CC=CCC2C(=O)O)sc(C(N)=O)c1C (configuration not stated),33.1,nt,10.9,-7.5,-0.7,i,15.7,1.1,
CCn1c(=O)n(CC(=O)NCC2CCCO2)c(=O)c2c3c(sc21)COC(C)(C)C3 (configuration not stated),2.3,2.4,5.6,-0.3,0.6,i,20.5,6.1,
